Methyltransferases: Primary Screen for Target Class Profiling of Small Molecule Inhibitors of Methyltransferases; purified enzyme, MTase-Glo SAH luminescence; active compounds read low; calls only at 40 µM; hit rate 3.9% among 25,000; AID 1745853, 2022; active = -50% or lower on at least one of six enzymes; inconclusive = the cases between; inactive = as a rule above -30% on all six;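 note: enzymes were COMT GAMT GNMT HNMT NNMT and PNMT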
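Each enzyme was reacted with SAM and its substrate, with compounds tested once at 40 uM; SAH formed was read by MTase-Glo luminescence.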
Calls only; i = inactive; ? = inconclusive; + = active, no number. % is set by controls: 0 for no effect and ±100 for the full control effect. A portion of the library; count on the stated rates, not on these rows.

SMILES	Methyltransferases
COC(=O)c1ncn2c1C(=O)N(c1cccc(OC)c1)C(C)(C(=O)NCc1ccccc1OC)C2 (stereo unspecified)	i
Cc1ccc(NC(=O)c2sc(=S)n3c2[nH]c(=O)c2cc(Cl)ccc23)c(C)c1	i
CCCN(CCC)CCN1C(=O)c2cc3sccc3n2CC1(C)C(=O)NC1CCCCCC1 (stereo unspecified)	i
NC(=O)c1cccc(NC(=O)c2cccc(CN3CCNC(=O)C3)c2)c1	i
Cc1nn(-c2ccccc2)c2c1C(C(C)C)N(C1CCCN(C(=O)c3ccccc3F)C1)C2=O (stereo unspecified)	i
C[C@@H]1O[C@@H](O[C@H]2[C@H](O[C@H]3CC[C@@]4(C)C(CC[C@]5(C)C4CC=C4C6CC(C)(C)CC[C@]6(C(=O)O[C@@H]6O[C@H](CO[C@@H]7O[C@H](CO)[C@@H](O[C@@H]8O[C@@H](C)[C@H](O)[C@@H](O)[C@H]8O)[C@H](O)[C@H]7O)[C@@H](O)[C@H](O)[C@H]6O)CC[C@]45C)[C@]3(C)CO)OC[C@H](O)[C@@H]2O)[C@H](O)[C@H](O)[C@H]1O (stereo partly specified)	i
COC(=O)c1cc2n(n1)CC(C)(C(=O)NC1CCCCC1)N(c1cc(OC)cc(OC)c1)C2=O (stereo unspecified)	i
CC(=O)O[C@H]1CC[C@]2(C)[C@H]3CC[C@]4(C)Oc5oc(C)cc(=O)c5C[C@H]4[C@]3(C)CC[C@H]2C1(C)C	i
CC(C)n1c(=O)c2ccc(C(=O)NC3CCCC3)cc2n2c(=O)n(CC(=O)NC(C)(C)C)nc12	i
Cn1c(=O)c2ccc(C(=O)NC3CCCC3)cc2n2c(SCc3ccccc3)nnc12	i
O=C(COc1ccccc1)NCC1CCCCC(=O)N1 (stereo unspecified)	i
O=C(CCCCN1CCOCC1)Nc1ccc(-c2cccnc2)cc1	i
Cc1ccc(-c2noc(-c3cccc(S(=O)(=O)N4CCN(c5cccc(C)c5C)CC4)c3)n2)cc1	i
CC(C)CCNC(=O)c1cc2n(n1)CC(C)(C(=O)NC1CCCCCC1)N(C)C2=O (stereo unspecified)	i
CSC(N)=NCCC[C@H](N)C(=O)O	i
COc1ccc(-c2cccc(C(=O)NC3CCOCC3)c2)nn1	i
CC(=O)Nc1c2n(c3ccc(F)cc13)CC(C)(C(=O)NC1CCCC1)N(Cc1cccs1)C2=O (stereo unspecified)	i
COCc1noc([C@@H]2CC(F)(F)CN2C(=O)Cc2cccc(F)c2)n1	i
CN(C)CCN1C(=O)c2cc3sccc3n2CC1(C)C(=O)NC1CCCCCCC1 (stereo unspecified)	i
COC(=O)c1cc2n(n1)CC(C)(C(=O)NC1CCCCC1)N(c1cc(Cl)ccc1C)C2=O (stereo unspecified)	i
CC(C)OCCCN1C(=O)c2cc(-c3ccccc3)nn2CC1(C)C(=O)NCc1ccccc1 (stereo unspecified)	i
C[C@@H]1O[C@@H](O[C@H]2[C@H](O)[C@@H](O)[C@H](OC(=O)[C@]34CCC(C)(C)C[C@H]3C3=CCC5[C@@]6(C)CC[C@H](O[C@@H]7O[C@H](C(=O)O)[C@@H](O)[C@H](O)[C@H]7O)C(C)(C)C6CC[C@@]5(C)[C@]3(C)CC4)O[C@@H]2CO)[C@H](O)[C@H](O)[C@H]1O (stereo partly specified)	i
Cc1ccc(NC(=O)CSc2nnc3n(CC(C)C)c(=O)c4ccccc4n23)cc1C	i
CC(O)CCNS(=O)(=O)c1ccc2c(c1)CN(C(=O)c1ccon1)CC2 (stereo unspecified)	i
COc1cccc(C2c3cccn3-c3sc4c(c3CN2C(=O)Nc2ccccc2C(F)(F)F)CCCC4)c1 (stereo unspecified)	i
Cc1ccsc1CCNC(=O)CCc1nnc2ccc(NCc3ccccc3)nn12	i
COC(=O)c1ccccc1N1C(=O)CSc2c(c3ccccc3n2C)C1C(=O)NCc1ccccc1OC (stereo unspecified)	i
C[C@H]1[C@@H](OC(=O)CCC(=O)O)O[C@@H]2O[C@@]3(C)CC[C@@H]4[C@H](C)CC[C@@H]1[C@@]24OO3	i
Cc1cc(C(=O)N2CC(N(C(=O)NC(C)C)C3CCOCC3)C2)nn1C	i
O=S(=O)(NCCc1noc(-c2ccccc2)n1)c1ccc2c(c1)OCCO2	i
O=C(c1ccccn1)N1CCC2(CC(c3cccc(C(F)(F)F)c3)=NO2)C1 (stereo unspecified)	i
O=C(NCc1ccccc1)c1ccc2c(=O)n(-c3cccc(C(F)(F)F)c3)c(=S)[nH]c2c1	i
CC(C)N(Cc1cccc(N2CCN(S(=O)(=O)c3c(Cl)cccc3Cl)CC2)c1F)S(C)(=O)=O	i
COc1ccc(S(=O)(=O)NCc2nc(-c3ccc(OC)c(OC)c3)no2)cc1	i
O=c1c2ccccc2n2c(-c3cc(Cl)ccc3O)nnc2n1Cc1ccccc1	i
CCOC(=O)CNC(=O)N1CCn2cccc2C1C(C)C (stereo unspecified)	i
CC1CCC2C(C)(C)C(O)C(O)CC2(C)C12Cc1c(O)cc(CO)c(C=O)c1O2 (stereo unspecified)	i
CN1CCN(CCN2C(=O)c3ccc(-c4ccco4)n3CC2(C)C(=O)NC2CCCCC2)CC1 (stereo unspecified)	i
COc1cccc(CN2C(=O)c3ccc(-c4ccco4)n3CC2(C)C(=O)NC2CCC(C)CC2)c1 (stereo unspecified)	i
COc1ccccc1/C=C/CN1CCn2nc(CO)cc2C1	i
C[S+](=O)([O-])N1CCC(Cn2ccc3c(N4CCOCC4)nc(-c4cccc5[nH]ncc45)cc32)CC1	+
CC(C)Cn1c(=O)c2ccccc2n2c(CCC(=O)N3CCN(c4cccc(Cl)c4)CC3)nnc12	+
Cc1ccc2c(n1)Oc1ccc(C(C)C(=O)OCC(=O)N(C)C)cc1C2 (stereo unspecified)	i
COC[C@H]1NC(=O)CC[C@H]1C(=O)NC1CCN(Cc2ccccc2)CC1	i
N#Cc1ccnc(-c2nnc3ccc(NC4CC4)nn23)c1	?
COC(=O)c1ccc([C@@H]2Nc3ccc(OC)cc3[C@@H]3C=CC[C@@H]32)cc1	i
COCCOCc1nc(C2CCNCC2)no1	i
O=C(O)[C@@H]1CN(C(=O)Cc2ccc(O)cc2)C[C@H]1c1cccc(F)c1	i
CSCCCN1CC[C@@H](NC(=O)c2ccncc2)[C@H](O)C1	i
O=C(COc1ccccc1)N1CCC(OCc2ccccc2)C1 (stereo unspecified)	i
The listing continues.
SMILES	Methyltransferases
Cc1ccc(Cn2c(=O)c3ccccc3n3c(CCC(=O)NCCN4CCCC4)nnc23)cc1	?
CCN(CC)CCOCCOC(=O)C1(c2ccccc2)CCCC1	i
COc1ccc2cc3n(c2c1)CC(C)(C(=O)NC1CCCC1)N(CCC(C)C)C3=O (stereo unspecified)	i
O[C@@H]1C[C@@H](c2nc(-c3ccncc3)no2)N(Cc2cccs2)C1	i
COc1ccccc1OC1(C(=O)O)CCN(Cc2ccc(-c3ccn[nH]3)o2)CC1	i
CCCN1C(=O)c2cc(C(=O)NCCc3ccc(OC)c(OC)c3)nn2CC1(C)C(=O)NC1CCCC1 (stereo unspecified)	i
CS(=O)(=O)N1CCC(OC2CCN(C(=O)c3cccnc3)CC2)CC1	i
COC(=O)c1ncn2c1C(=O)N(c1ccc3c(c1)OCCO3)C(C)(C(=O)NCc1ccccc1)C2 (stereo unspecified)	i
Cc1ccc(Cn2c(=O)c3ccc(C(=O)NC(C)C)cc3n3c(SCC(=O)NC(C)C)nnc23)cc1	i
COc1ccc(NC(=O)CCc2nnc3n(Cc4ccccc4Cl)c(=O)c4ccccc4n23)cc1	i
O=C1N(Cc2cccc(F)c2F)CCCC1(O)CNCc1ccccc1 (stereo unspecified)	i
O=C(Nc1ccc(Oc2ccccc2)cc1)N[C@H]1CO[C@H]2[C@@H]1OC[C@@H]2n1nnnc1Oc1ccc(-n2cncn2)cc1	i
CCC(C)NC(=O)c1ccc2c(=O)n(C(C)C)c3nn(CC(=O)Nc4ccc(C)c(F)c4)c(=O)n3c2c1 (stereo unspecified)	i
CCCn1c(=O)c2ccccc2n2c(SCC(=O)NC(C)CC)nnc12 (stereo unspecified)	i
CC(C)OCCCNC(=O)c1cc(-c2cccc(C(F)(F)F)c2)c2cccn2n1	i
COc1ccc2cc3n(c2c1)CC(C)(C(=O)NC1CCCCC1)N(C1CCCC1)C3=O (stereo unspecified)	i
CCc1ccc(NC(=O)Cn2nc3n(CC(C)C)c(=O)c4ccc(C(=O)NCC(C)C)cc4n3c2=O)cc1	i
CCc1ccc(NC(=O)Cn2nc3n(Cc4ccc(F)cc4)c(=O)c4ccccc4n3c2=O)cc1	i
CCOC(=O)c1cc2n(n1)CC(C)(C(=O)NCc1ccccc1OC)N(c1ccc(F)cc1)C2=O (stereo unspecified)	i
O=C(Cn1nc2nc(Nc3ccc(F)cc3)ccn2c1=O)Nc1ccc2c(c1)OCCO2	i
COCCOc1cc(-c2noc([C@@H]3CCCN3C3CCN(C(C)=O)CC3)n2)ccn1	i
COc1ccc(-c2cc(C(=O)NCc3c(C)cc(C)[nH]c3=O)c3c(c2)N(C)CCO3)cn1	i
Cc1ccc(-c2cc(N3CCCN(C(=O)c4ccccc4F)CC3)n[nH]2)cc1C	i
CC1(C(=O)NC2CCCC2)Cn2c(ccc2-c2ccco2)C(=O)N1CCc1ccc(Cl)cc1 (stereo unspecified)	i
Cn1c(=O)c2ccc(C(=O)NC3CCCC3)cc2n2c(SCC(=O)Nc3cc(F)ccc3F)nnc12	i
NCCCCCCCCCCN	i
CCOC(=O)c1csc(Nc2ccc(Cl)cc2)n1	i
CCn1c(=O)n(CC)c2cc(S(=O)(=O)Nc3ccccc3)ccc21	i
CCOc1ccc(NC(=O)N2Cc3c(sc4c3CCCC4)-n3cccc3C2c2ccc(C)cc2)cc1 (stereo unspecified)	i
CN1C(=O)c2cc(C(=O)N3CCCCC3)nn2CC1(C)C(=O)NCc1ccccc1 (stereo unspecified)	i
CCOC(=O)c1cc2n(n1)CC(C)(C(=O)NC1CCCCC1)N(c1cc(C)ccc1C)C2=O (stereo unspecified)	i
Cc1ccc(CNC(=O)Cn2nc3n(Cc4ccc(C)cc4)c(=O)c4ccccc4n3c2=O)cc1	i
Cc1cc(C)cc(NC(=O)Cn2nc3n(C)c(=O)c4ccc(C(=O)NC5CCCCC5)cc4n3c2=O)c1	i
Cn1c(=O)n(C)c2cc(S(=O)(=O)NCc3ccccc3)c(Cl)cc21	i
COCC(=O)Nc1ccc([C@H]2OCC(=O)N[C@@H]2CO)cc1	i
COc1ccc([C@@H]2CN(C(=O)CCc3c(C)noc3C)C[C@H]2N(C)C)cc1	i
O=C(CCl)Nc1cccc(NC2=NS(=O)(=O)c3ccccc32)c1	?
O=C(c1ccncc1)N1CC2CCC(C1)N2Cc1ccc(-c2cccs2)cc1	i
CC(C)CNC(=O)CN1CCOc2c(O)cc(-c3cccc(Cl)c3)cc2C1	i
COc1ccc(S(=O)(=O)N2CCC(Cc3nncn3C(C)C)CC2)cc1	i
CC(=O)OC[C@]12[C@@H](OC(=O)c3ccoc3)C[C@@H]3[C@@H](OC(C)=O)[C@]1(OC3(C)C)[C@@](C)(O)C[C@H](OC(=O)c1ccoc1)[C@@H]2OC(=O)c1ccoc1	i
C=CCNC(=O)CCCc1nnc2n3nc(-c4ccccc4)nc3c3ccccc3n12	i
CCCn1ccnc1-c1c(-c2ccccc2)ncn1CCCC(=O)OC	i
CC1CCC2(C(=O)OC3OC(CO)C(O)C(O)C3O)CCC3(C)C(=CCC4C5(C)CC(O)C(O)C(C)(C(=O)O)C5CCC43C)C2C1(C)O (stereo unspecified)	i
Cc1ccccc1CN1C(=O)c2ccc(-c3ccccc3)n2CC1(C)C(=O)NC1CCCC1 (stereo unspecified)	i
CC(C)OCCCNc1nc2c(S(=O)(=O)c3ccc(Br)cc3)nnn2c2ccccc12	i
COc1ccc(N(C(=O)c2ccccc2F)S(=O)(=O)c2ccc3c(c2)n(C)c(=O)n3C)cc1	i
Cn1cc(CN[C@H]2C[C@H]3C(=O)NC[C@@H](CCC(=O)NCc4ccccc4)N3C2)c2ccccc21	i
COc1ccc(NC(=O)N2CCn3c(C)ccc3C2C(C)C)cc1OC (stereo unspecified)	i
COc1ccccc1-c1ccc(CN2CCCC(c3nc4ccc(C)cc4c(=O)[nH]3)C2)cc1 (stereo unspecified)	i
(continued)
SMILES	Methyltransferases
NC(=O)Nc1cc(-c2cccc(F)c2)sc1C(=O)NC1CCCNC1 (stereo unspecified)	?
CC(C)CCNC(=O)c1ccc2c(=O)[nH]c3c(C(=O)NC(C)C)sc(=S)n3c2c1	?
COc1cccc(CNC(=O)N2Cc3c(sc4c3CCCC4)-n3cccc3C2c2cccc(F)c2)c1 (stereo unspecified)	i
Cc1ccc([S+](=O)([O-])NC2CCN(CCn3nc4n(c3=O)CCCC4)C2)cc1 (stereo unspecified)	i
COC[C@H](C)Oc1cc(O[C@@H](C)Cc2ccccc2)cc(C(=O)Nc2ccc(C(=O)O)cn2)c1	?
